# H5N1 antiviral = MDCK cell protection from H5N1 avian flu; 96,000 tested, 0.07% active; cytopathic effect, luminescence, 72 h; hits give high values; no value below 0 was filed and about half of the inactive calls have no number; reference of the scale not given here; inhibition, % at 50 µM; in the data active means inhibition above about 25%
# The depositor's hits bear a star; i = inactive. Some of the compounds tested; the hit share may differ from the screen's.
# A first look (4 entries):
SMILES,H5N1 antiviral
COc1ccc(OC)c(NC(=O)C2C3CCC(C3=C(C)C)C2C(=O)O)c1 (configuration not stated),0.4
CC(=O)/C(=C\Nc1ccc(OCc2ccccc2)cc1)c1ccccc1,i
Cc1cc(/C=N/n2cnnc2)c(C)n1-c1ccc(OCc2ccc(Cl)cc2)cc1,i
[O-][N+]1=c2ccc(Nc3ccccc3)cc2=NC12CCCCC2,i

# The listing, previewed entries included:
SMILES,H5N1 antiviral
COc1ccc(OC)c(NC(=O)C2C3CCC(C3=C(C)C)C2C(=O)O)c1 (configuration not stated),0.4
CC(=O)/C(=C\Nc1ccc(OCc2ccccc2)cc1)c1ccccc1,i
Cc1cc(/C=N/n2cnnc2)c(C)n1-c1ccc(OCc2ccc(Cl)cc2)cc1,i
[O-][N+]1=c2ccc(Nc3ccccc3)cc2=NC12CCCCC2,i
CCOC(=O)N1CCN(C(=O)C(C)N(c2ccc(Oc3ccccc3)cc2)S(C)(=O)=O)CC1 (configuration not stated),0.1
CCc1cc2c(=O)[nH]c(Cc3ccccc3)nc2s1,i
O=C(NCc1ccco1)c1nn2c(C(F)(F)F)cc(-c3cccs3)nc2c1Br,1.0
COc1nc(OC)nc(N2CCC(NC(=O)C(Cc3ccc(C(C)C)cc3)NC(C)=O)CC2)n1 (configuration not stated),i
CCC(=O)OCCCCCCOc1ccc(C(=O)O)cc1,i
COc1ccc(-c2cc(C(F)(F)F)n3nc(C(=O)N4CCCCC4)cc3n2)cc1,i
Cc1ccc(C)c(Cc2c(C)nc3c(C(=O)N4CCOCC4)cnn3c2C)c1,i
CCOC(=O)c1c(C)nc2sc(C(=O)Nc3ccc(OC)cc3)c(N)c2c1-c1ccc(OC)cc1,i
CCOC(=O)C1C(=O)OC(C)(C)C1C(C)C(=O)c1ccc(C)cc1 (configuration not stated),0.6
Cc1ccc(C(=O)N(c2ccccn2)C(C)c2ccco2)cc1C (configuration not stated),i
O=C1CN(C(=O)CN2CCOCC2)C(c2ccccc2)c2cc(Br)ccc2N1 (configuration not stated),0.3
Cc1ccc(S(=O)(=O)N2CCN(C(=O)c3cc4c(C)nn(-c5ccccc5C)c4s3)CC2)cc1,1.2
Cc1ccc(NC2=Nc3ccccc3N3C2=Nc2c(c(C)nn2-c2ccccc2)C3c2ccc(O)c(O)c2)cc1 (configuration not stated),i
Cc1ccc(CNC(=O)C(C)OC(=O)c2cccs2)cc1 (configuration not stated),0.3
CCOC(=O)CCC(=O)N1CCOCCOCCOCC1,0.4
CCn1c(=O)cc(SCC(=O)NCc2ccc3c(c2)OCO3)c2ccccc21,1.6
CCCC(=O)N(CCN(Cc1ccccc1)C(=O)CCC)Cc1ccccc1,1.5
COc1ccccc1-n1c(O)c(C=NC2CC2)c(=O)[nH]c1=O,0.5
CCCC(=O)c1c(O)[nH]c(=O)[nH]c1=O,i
C=C(C)CSc1nnc(CCNC(=O)OC(C)(C)C)o1,0.6
COc1ccc(C(C)=O)cc1COC(=O)c1cnc(C)cn1,0.5
CC1Cc2ccccc2N1C(=O)c1cc2c(=O)n3ccccc3nc2n1C (configuration not stated),i
COc1ccc(S(=O)(=O)N(C)CC(=O)Nc2cccc(C(C)=O)c2)cc1Cl,0.4
COc1ccc(NC(=O)CN(C)C(=O)c2ccc(C)s2)cc1,i
COc1ccc([N+](=O)[O-])cc1NCc1ccccc1C,0.7
Cc1ccc2nc(SCC(=O)NCc3ccco3)[nH]c2c1,0.3
CC1CCN(CCCNC(=O)C2CCN(S(=O)(=O)N3CCCCC3)CC2)CC1,0.9
Cc1cccnc1NC(=O)c1c(O)c2cccc3c2n(c1=O)CCC3,i
CCN(C(=O)Cn1c(=O)oc2ccccc21)C1CCS(=O)(=O)C1 (configuration not stated),0.0
N#Cc1nc(-c2cccs2)oc1NCc1ccc2c(c1)OCO2,0.6
CC1=C(C(=O)Nc2cccnc2)C(c2ccccn2)n2nnnc2N1 (configuration not stated),i
Cc1occc1-c1nnc(SCC(=O)N(C)C)o1,2.1
N#Cc1nc(Cc2cccc3ccccc23)oc1NCc1ccc(F)cc1,i
CCN(CC)CCCNC(=O)C1CCCN(c2nnc(N3CCCC3=O)s2)C1 (configuration not stated),i
COc1ccc(C)cc1NC(=O)CN1CCN(CC(=O)Nc2ccccc2F)CC1,i
O=c1[nH]c2cc3c(cc2cc1CN(Cc1nnnn1C1CCCC1)C1CCCC1)OCCO3,0.9
Cc1csc(NC(=O)CN2C(=O)C3CC=CCC3C2=O)n1 (configuration not stated),0.3
COc1ccc(-c2nnc(SCC(=O)c3ccc[nH]3)o2)cc1,i
OC1C2(Cc3ccccc3)CN3CCN(C2)CC1(Cc1ccccc1)C3 (configuration not stated),i
O/N=C1\CCC\C1=C/c1ccco1,i
COc1ccccc1N1CCN(CCNC(=O)Nc2cccc(C)c2C)CC1,i
CCn1cc(Br)c(C(=O)NN)n1,i
O=C(c1ccco1)N1CCN(C(c2cccs2)c2sc3ncnn3c2O)CC1 (configuration not stated),0.8
COc1ccc(S(=O)(=O)Nc2ccc(NC(C)=O)cc2)cc1,0.1
COCCN(C(=O)c1csnn1)C(C(=O)NC(C)(C)C)c1cccc(OC)c1 (configuration not stated),i
COc1ccc(C(=O)c2no[n+]([O-])c2C(=O)c2ccc(OC)cc2)cc1,i
O=c1cc(-c2c(F)c(F)c(F)c(F)c2F)oc2c(F)c(F)c(F)c(F)c12,7.8
CCOC(=O)C1CCN(S(=O)(=O)c2cc(Br)cc3c2N(C(C)=O)C(C)C3)CC1 (configuration not stated),i
COc1ccc(-n2nc(C(=O)NCC(=O)NCC3CCCO3)c3ccccc3c2=O)c(OC)c1 (configuration not stated),i
O=C1c2ccccc2C(=O)c2c1cccc2N1CCN(Cc2ccccc2)CC1,i
CSc1ccc(NC(=O)NCCN2CCc3ccccc3C2)cc1,0.7
Cc1cc(C)n2nc(SCC(=O)c3cc(C)n(-c4cc(C)on4)c3C)nc2n1,0.3
Cc1[nH]n2c(=O)c3c(nc2c1-c1cccc2ccccc12)CCC3,0.0
Cc1ccsc1/C=N/N1CCN(C2c3ccccc3-c3ccccc32)CC1,i
Cc1ccc(S(=O)(=O)NCCOCCNS(=O)(=O)c2ccc(C)cc2)cc1,1.4
COc1ccc(C(=O)Nc2ccccc2)cc1S(=O)(=O)Nc1cc(C)on1,0.2

# Brought forward from above: two entries; new compounds follow.
SMILES,H5N1 antiviral
Cc1ccc(S(=O)(=O)NCCOCCNS(=O)(=O)c2ccc(C)cc2)cc1,1.4
COc1ccc(C(=O)Nc2ccccc2)cc1S(=O)(=O)Nc1cc(C)on1,0.2
CC(/C=C/C(=O)c1ccc(C)cc1)=C\c1ccccc1,1.9
COc1ccc(NC(=O)C(NS(=O)(=O)c2ccc3c(c2)CCCN3C(C)=O)C(C)C)c(OC)c1 (configuration not stated),0.1
O=C1CN(C(=O)CC2c3ccccc3-c3ccccc32)CC(=O)N1,1.2
Cc1cc(C)n(-c2nc(-c3cccc(Cl)c3)cs2)n1,i
Cn1cc(C(=O)c2ccc(F)cc2)cc1-c1nc2ccccc2n1C,0.5
Nc1nonc1C(=O)NCCNCc1ccccc1,i
c1cc(-n2cnnn2)ccc1NC1=NCCC1,0.7
COc1ccc(NC(=O)N(CCN2CCCC2)Cc2cc3cc(OC)c(OC)cc3[nH]c2=O)cc1,2.0
Cc1ccc(N2C(=O)c3n[nH]c(C)c3C2c2ccco2)cc1 (configuration not stated),1.4
Cc1c(CCO)c(=O)n(C)n1C(=O)c1ccc(Cl)cc1,i
O=S(=O)(CCN1CCN(C(c2ccccc2)c2ccccc2)CC1)C(F)(F)F,i
CCNCC(O)COCC(O)CNCC (configuration not stated),0.2
O=c1[nH]c2cc(Br)cnc2nc1/C=C(\O)c1ccc(F)cc1,i
Cc1cc(C)nc(SCCc2ccncc2)n1,1.5
CCCCCCn1c(NCC)nc2c1c(=O)n(C)c(=O)n2C,0.6
COc1ccc(CNC(=O)/C=C/c2ccc(OCCCF)cc2)cc1OC,i
CCOC(=O)c1sc(=S)n(-c2ccccc2)c1SC,0.9
Cc1cc(C)nc(N(C#N)Cc2ccccc2Cl)n1,0.8
COc1ccc2nc(NC(=O)CSc3nnc4n3C(C)(C)Cc3ccccc3-4)sc2c1,i
COc1ccccc1-c1cc(C(=O)N/N=C/c2sccc2C)c2ccccc2n1,i
CCOC(=O)C1=C(CSc2nccn2C)NC(=O)NC1c1ccc(OC)cc1 (configuration not stated),1.5
CCN1C(=O)CC(Sc2ccccc2C(=O)O)C1=O (configuration not stated),1.1
Cc1nc(C#N)c(NCc2ccc3c(c2)OCO3)o1,0.1
Brc1ccc2[nH]c3c(N4CCc5ccccc5C4)ncnc3c2c1,i
CCN(CC)CCCN(Cc1cc2cc(OC)ccc2[nH]c1=O)C(=O)Nc1ccc(F)cc1,i
O=C(CN(CCc1ccccc1)C(=O)CN1C(=O)COc2ccccc21)NCc1ccco1,i
O=c1[nH]c2ccccc2n2c(-c3ccncc3)nnc12,1.4
Clc1ccc(OCc2nn3c(-c4ccco4)nnc3s2)c(Cl)c1,0.5
CCOC(=O)c1sc2nc(CC(=O)OC)nc(NCCN(CC)CC)c2c1C,i
CCNC(=S)Nc1ccc(N(c2ccccc2)C(C)C)cc1,i
CCCc1cc(C(=O)Nc2cc(C)on2)no1,1.1
C=CCn1c(SCc2ccc(C#N)cc2)nnc1-c1cccc(Cl)c1,i
COC(=O)NC(=C(Cl)Cl)S(=O)(=O)c1ccccc1,2.2
c1ccc(COc2ccc(OCCCCN3CCCCC3)cc2)cc1,0.7
COc1ccccc1C1CN(c2ccc(F)cc2F)N=C1c1cccs1 (configuration not stated),0.7
CCC(C)c1ccc(OCC(=O)O)cc1 (configuration not stated),i
CCOc1cc(C2C(C(=O)OC(C)C)=C(C)N=C3SCCC(=O)N32)ccc1OC(C)=O (configuration not stated),i
CCOC(=O)N1CCC(NS(=O)(=O)c2cc(Br)cc3c2N(C(=O)CC)CC3)CC1,1.4
CC1CCCN(Cc2nc3c(c(=O)n(C)c(=O)n3C)n2CC(=O)c2ccccc2)C1 (configuration not stated),2.4
CCCC(=O)Nc1cc(-c2nnc(OC)c3ccccc23)ccc1N1CCCCC1,1.2

# Five structures from above, arranged by SMILES length, high to low:
SMILES,H5N1 antiviral
CC1CCCN(Cc2nc3c(c(=O)n(C)c(=O)n3C)n2CC(=O)c2ccccc2)C1 (configuration not stated),2.4
CCOC(=O)c1sc2nc(CC(=O)OC)nc(NCCN(CC)CC)c2c1C,i
Clc1ccc(OCc2nn3c(-c4ccco4)nnc3s2)c(Cl)c1,0.5
O=c1[nH]c2ccccc2n2c(-c3ccncc3)nnc12,1.4
CCCc1cc(C(=O)Nc2cc(C)on2)no1,1.1

# Next section.
SMILES,H5N1 antiviral
CS(=O)(=O)N(CC(=O)NC1CCCC1)c1ccc2c(c1)OCCO2,0.2
COc1ccc(C2C(=O)N(C3CCCCCC3)CC(=O)N2Cc2ccccc2)cc1OC (configuration not stated),i
ON=C1CCN(c2ncc(C(F)(F)F)cc2Cl)CC1,i
O=P(OC1CCCCC1)(OC1CCCCC1)C(O)c1c(Cl)cccc1Cl (configuration not stated),0.6
COc1ccc2ccccc2c1C1CC(=O)N2CN(Cc3ccco3)CSC2=C1C#N (configuration not stated),0.4
CC(=O)Nc1ccc(S(=O)(=O)NCc2ccc3c(c2)cc(C)n3C)cc1,3.7
C=CCn1c(=O)c2c(nc3n2CCS3)n(C)c1=O,i
CC1=Nn2c(nnc2-c2ccccn2)SC1,0.4
Cc1cc(C)c2cc(CN(CCO)Cc3nnnn3Cc3ccccc3)c(=O)[nH]c2c1,0.4
CC1CCCCN1C(=O)NC12CC3CC(CC(C3)C1)C2 (configuration not stated),1.1
CCC(C)(C)n1nnnc1CN1CCN(c2nc3cc(OC)ccc3cc2C#N)CC1,0.8
CCOC(=O)N1CCN(c2cc(N)c([N+](=O)[O-])cc2F)CC1,0.7
Cc1nn(C)c(C)c1P(=S)(c1c(C)nn(C)c1C)N(C)C,0.3
O=C(CSc1nc(-c2ccco2)cc(C(F)(F)F)n1)NCc1cccs1,1.9
COCCN(C(=O)CCC(=O)Nc1ccccn1)C(C(=O)NCCC(C)C)c1ccc(OC)cc1 (configuration not stated),0.1
CC(C)(C)c1nc2c(C#N)c(-c3ccc(Cl)cc3)ccn2n1,i
CCOC(=O)c1sc2ccccc2c1OC(=O)c1ccccc1,0.8
CCC(C)[C@H](NC(=O)NCCCN1CCOCC1)C(=O)OC (some centres not stated),i
CCCC(=O)Nc1cccc(NC(=O)c2ccc3c(c2)OCCO3)c1,i
Cc1cccc2cc(CN(CCCO)C(=O)Nc3cccc(Cl)c3)c(=O)[nH]c12,i

# Laid out differently: 3 of the compounds above
COc1ccc(C2C(=O)N(C3CCCCCC3)CC(=O)N2Cc2ccccc2)cc1OC (configuration not stated)
  H5N1 antiviral: i
CCC(C)[C@H](NC(=O)NCCCN1CCOCC1)C(=O)OC (some centres not stated)
  H5N1 antiviral: i
CCOC(=O)N1CCN(c2cc(N)c([N+](=O)[O-])cc2F)CC1
  H5N1 antiviral: 0.7

# Carrying on.
SMILES,H5N1 antiviral
O=C(CN1C(=O)c2ccccc2S1(=O)=O)N1CCc2ccccc21,i
O=C(NNc1nc2ccccc2s1)c1ccccc1F,i
CC(C)NC(=O)CSCc1c(Cl)cccc1Cl,0.8
CC/C=C/C(=O)N1CC2(CC(c3cccc(NC(=O)c4ccccc4)c3)=NO2)C[C@@H]1C(N)=O (some centres not stated),i
CC(=O)Nc1ccc(S(=O)(=O)N2CCN(CC(O)COc3ccc4ccccc4c3)CC2)cc1 (configuration not stated),0.9
O=C(N/N=C/c1ccc(Br)s1)c1ccccc1[N+](=O)[O-],2.8
CS(=O)(=O)N(Cc1ccccc1)c1ccccn1,0.7
Cc1cc(Cl)c(S(=O)(=O)NCc2ccccc2)cc1OCC(N)=O,0.7
CCOC(=O)C1=C(C)NC2=C(C(=O)C(C(=O)OC)C(C)C2)C1c1ccc(OC)c(O)c1 (configuration not stated),i
CC(=O)N(/N=C1\Sc2ccccc2C1=O)c1cccc(C)c1,0.7
CC(=O)Nc1ccc(S(=O)(=O)NC2(C(F)(F)F)C(=O)Nc3c2c(=O)[nH]c(=O)n3C)cc1 (configuration not stated),i
Cc1cc(OC(=O)c2ccccc2Br)cc(=O)n1C,i
C=CCc1cccc(CNc2nc3ccccc3n2CCC)c1O,i
O=C1COc2ccc3ccccc3c2CN1,0.4
COc1ccc(CC(=O)Nc2nc3n(n2)C(c2ccccc2)CC(=O)N3)cc1OC (configuration not stated),0.1
